Screening data as filed in PubChem.
Mito fusion act = inhibitors of mitochondrial division or activators of mitochondrial fusion; Potency, µM (titrated, usually from 46.1 µM), without a hit: top-dose growth rescue (activation), hits mostly activators; hit rate 0.23% among 320,000; S. cerevisiae fusion-defective mutant growth rescue, CellTiterGlo 48 h; active = well fitted activation curve with a large enough effect;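 also: % of control where 0% means no effect; nearly all actives have a fitted effect of over 45% in size; temperature-sensitive fusion mutants such as fzo1-1 at 37 °C on non-fermentable ethanol glycerol medium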
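Read-out: ATP-based luminescence (CellTiterGlo, 10 min ambient) reporting growth of fusion-defective ts yeast after 48 hours at 37C on glycerol/ethanol YPEG medium in the presence of compound.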
An asterisk follows results filed as active; & = joins results of further samples; [ ] = dose if it differs, or a comment. Potency is read from the fitted curve at half-maximal effect.

nr	Mito fusion act	SMILES
1	-0.3%	CN1CCc2cccc3c2[C@@H]1Cc1ccc(O)c(O)c1-3
2	12.8%	Nc1ncn(C2O[C@H](CO)[C@@H](O)[C@H]2O)c(=O)n1 (some centres not stated)
3	-1.3%	COc1ccc(/C=C/C(=O)O)cc1OC
4	15.8%	Cc1ccc(-c2csc(N3CCC(NS(=O)(=O)c4ccc5c(c4)OCCO5)CC3)n2)cc1
5	-5.9%	CN1CCN(CCCCOc2ccccc2C=O)CC1
6	-0.5%	C[N+]1(C)CC[C@H](OC(=O)[C@@](O)(c2ccccc2)C2CCCC2)C1
7	-61.9%&-2.8%[inhibitor]	CC(C)(C)c1ccc(C(O)CCCN2CCC(C(O)(c3ccccc3)c3ccccc3)CC2)cc1 (configuration not stated)
8	2.5%	O=C(N/N=C/c1ccc([N+](=O)[O-])s1)c1cccnc1

Ordered by number of heavy atoms (lowest first): five of the compounds above
nr	Mito fusion act	SMILES
3	-1.3%	COc1ccc(/C=C/C(=O)O)cc1OC
1	-0.3%	CN1CCc2cccc3c2[C@@H]1Cc1ccc(O)c(O)c1-3
6	-0.5%	C[N+]1(C)CC[C@H](OC(=O)[C@@](O)(c2ccccc2)C2CCCC2)C1
4	15.8%	Cc1ccc(-c2csc(N3CCC(NS(=O)(=O)c4ccc5c(c4)OCCO5)CC3)n2)cc1
7	-61.9%&-2.8%[inhibitor]	CC(C)(C)c1ccc(C(O)CCCN2CCC(C(O)(c3ccccc3)c3ccccc3)CC2)cc1 (configuration not stated)

(further entries)
nr	Mito fusion act	SMILES
9	3.1%&0.3%	COC(=O)[C@H]1[C@H]2C[C@H]3c4[nH]c5ccccc5c4CCN3C[C@H]2CC[C@@H]1O
10	2.3%	C/C(O)=c1/c(=O)nc2cccc3c2=c1c1ccccc1c3=O
11	-8.4%&-2.2%	CCN(CC)CCNC(=O)c1ccc(N)cc1
12	-6.7%&-6.5%	Clc1cccc(Cl)c1NC1=NCCN1
13	-2.7%	CNC(=O)Oc1ccc2c(c1)[C@]1(C)CCN(C)C1N2C (some centres not stated)
14	-2.7%	CN(C)CCOC(c1ccccc1)c1ccccc1 (tested in a mixture with another compound)
15	-6.4%	Cc1cc(C)c(S(=O)(=O)Nc2cccc(/C=C/C(=O)O)c2)c(C)c1
16	-1.3%	Cc1nc(-c2ccc(C(=O)Nc3ccc(F)cc3)cc2)cs1
17	-5.3%	CNCC(=O)O
18	7.0%	O=C(O)c1cccnc1SCCc1ccccc1
19	-8.0%	COC(=O)C1C(O)CCC2CN3CCc4c([nH]c5ccccc45)C3CC21 (configuration not stated)

Some of the entries so far, with tabs.
nr	mol	Mito fusion act
11	CCN(CC)CCNC(=O)c1ccc(N)cc1	-8.4%&-2.2%
9	COC(=O)[C@H]1[C@H]2C[C@H]3c4[nH]c5ccccc5c4CCN3C[C@H]2CC[C@@H]1O	3.1%&0.3%
12	Clc1cccc(Cl)c1NC1=NCCN1	-6.7%&-6.5%

Taken from above:
Mito fusion act result of entry 11 : -8.4%&-2.2%
Mito fusion act result of entry 14 : -2.7%
Mito fusion act result of entry 16 : -1.3%
Mito fusion act result of entry 12 : -6.7%&-6.5%
Mito fusion act result of entry 9 : 3.1%&0.3%
Mito fusion act result of entry 19 : -8.0%
Mito fusion act result of entry 17 : -5.3%

An excerpt; most or all hits stand in other tables.
